Bioassay records from PubChem BioAssay.
Sa helicase inh: S. aureus DNA helicase inhibition. purified S. aureus helicase, fluorescence unwinding assay; about half of the hits fall short of the stated cut. inhibition, %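 (tested at about 80 µM)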. 120,000 compounds, 0.05% hits. AID 485395;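 active = both duplicates at 50% or more, or one of them with a favoured structure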;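 also: 0% = mean of negative control wells and 100% = mean of positive control wells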
MgrA DNA FP: alters Staphylococcus aureus MgrA binding to DNA; fluorescence polarization; inhibition, %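 (about 10 µg/mL by stock and volumes)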; 84,000 compounds, 0.13% hits; AID 602314;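 active = above 50% in either of two replicates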;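 also: 0% = protein plus DNA without compound and 100% = DNA alone without protein; higher means less MgrA bound to DNA so lower polarization; one replicate is shown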
Numbers without * were called inactive; · = not tested or not shown. Only part of the results is shown; the hit share may differ from the screen's.

SMILES	Sa helicase inh	MgrA DNA FP
CC(C)=CCCC(C)CN1CCN(Cc2ccccc2)CC1 (stereo unspecified)	11	-4.2
CCOC(=O)C(C)n1cnc2c(nnn2Cc2ccc(C)cc2)c1=O (stereo unspecified)	19	2.5
Cc1ccc(Cn2c(C(=O)NCc3ccccc3)cc3oc(C)cc32)cc1	-5	·
CCCOc1ccc(/C=C/C(=O)O)cc1OCC	21	-1.6
Cc1ccc(-c2nn(-c3ccccc3)cc2/C=C2/CN(C)C/C(=C/c3cn(-c4ccccc4)nc3-c3ccc(C)o3)C2=O)o1	-2	·
CCn1c(SCC(=O)N2CCNC2=O)nnc1-c1cccs1	11	·
CNC(=O)COc1ccc(NC(=O)CCn2nc(-c3ccc(Cl)cc3)c3ccccc3c2=O)cc1	9	0.6
CN1c2ccccc2C(=O)/C(=C/N=S(C)(C)=O)S1(=O)=O	·	1.4
CN1CC=C(Cc2n[nH]c(=O)c3ccccc23)CC1	-27	·
CCn1cc(C(=O)NCc2ccc(C)cc2)c(=O)c2cc(S(=O)(=O)N(C)C)ccc21	-18	·
Cn1c(=O)[nH]c(=O)c2[nH]c(SCC(=O)O)nc21	1	·
COC(=O)c1c(NC(=O)c2c(-c3ccccc3Cl)noc2C)sc2c1CCCC2	16	5.5
CC(C)n1cc(-c2nc(C(=O)NN)cs2)c(=O)n(Cc2ccccc2)c1=O	·	-2.6
Cc1ccc(S(=O)(=O)NCCCCCC(=O)O)cc1	·	-1.1
CCOc1cc(-n2cnnn2)c(OCC)cc1NC(=O)CN1Cc2ccccc2C1=O	-4	·
O=C(OCC(=O)N1CCCC1=O)c1ccc(S(=O)(=O)NCc2ccco2)cc1	31	·
NC(=O)C1CCN(c2nc(-c3cccc(Cl)c3)c3c(n2)-c2ccccc2OC3)CC1	13	1.5
COC(=O)c1ccc(OC(=O)c2cc(OC)c(OC)c(OC)c2)c(C(=O)OC)c1	-5	·
Cc1ccc(N=Cc2ccc[nH]2)c(Br)c1	-19	1.4
CC(C)C(=O)Nc1c(O)c2ccccc2[nH]c1=O	18	2.4
Cc1sc(NC(=O)CN2CCOCC2)c(C#N)c1C	·	-0.7
O=c1cc(CO)oc(C(=Nc2ccc(Cl)cc2)c2ccncc2)c1O	-14	·
Cc1ccc(N2CC(N)=C(n3cc[n+](C)c3)C2=O)cc1	-7	-0.5
Cc1cc(N2CCN(C)CC2)nc2ccc(NC(=S)N3CCC(C)CC3)cc12	37	·
CCC(C)N1C(=O)CCC1C(=O)O (stereo unspecified)	12	-2.0
COc1cc2c(cc1OC)C(C)N(C(=O)c1ccc(-c3ccccn3)s1)CC2 (stereo unspecified)	·	0.2
c1ccc(-n2c(SCc3cn4ccsc4n3)nc3ccccc32)cc1	5	·
COC(=O)c1[nH]n(-c2c(C)cccc2Cl)c(=O)c1N=O	·	-1.6
CC[C@H]1CN2CCc3cc(OC)c(OC)cc3[C@@H]2C[C@@H]1CC1NCCc2cc(OC)c(OC)cc21 (stereo partly specified)	·	4.2
Nc1nncn1C(=O)c1ccc2c(c1)OCO2	6	·
Sc1sc(-c2ccccc2)cc1C=Nc1ccccc1	-11	·
Cn1nc(C(F)(F)F)c2cc(C(=O)O)sc21	15	·
COc1ccc2nc(NC(=O)CSc3nc4ccccc4[nH]3)sc2c1	·	-0.6
CNC(=O)c1cc2c(n(-c3ccccc3)c1=O)CCCC2=O	5	-0.4
COc1cccc(N2CCN(C(=O)Cc3n[nH]c(=O)c4ccccc34)CC2)c1	-22	·
Cc1csc2sc(C(=O)Oc3ccc(Cl)cc3)c(C)c12	·	1.0
Cc1cc(C(=O)Nc2ccc(Cl)cc2)c(C(F)(F)F)o1	·	0.2
O=C(CC1CCCCC1)Nc1ccncc1	7	-3.5
Oc1ccccc1C=NCCN=Cc1ccccc1O	·	-1.9
CCCN(C(=O)Cc1noc2ccc(C)cc12)c1ccc(Cl)c(Cl)c1	-12	·
N/C(CCN(Cc1ccco1)S(=O)(=O)c1cccc2nsnc12)=N\O	·	-1.8
Cc1onc(-c2ccccc2Cl)c1C(=O)N(CC(C)C)CC(C)C	-2	0.0
C=CCn1c(-c2cc(OC)c(OC)c(OC)c2)nc2ccccc21	9	0.0
COc1cc2c(cc1OC)C1=C(C#N)CN(c3ccc(C)c(C)c3)CN1CC2	11	1.0
C=C1SC(Nc2cccc(Cl)c2)=NC1(C)C	25	·
CCOC(=O)C1CCCCN1Cc1ccc(CC)cc1 (stereo unspecified)	7	-2.2
O=C1Nc2cc(C(=O)N3CCN(c4ccc(F)cc4)CC3)ccc2NC1CS(=O)(=O)Cc1ccc(F)cc1 (stereo unspecified)	0	·
CC(C)(C)SCCNc1nc(Oc2ccc(Cl)cc2)nc(Oc2ccc(Cl)cc2)n1	·	-2.2
CC(=O)OC[C@H]1O[C@@H](NC(N)=O)[C@H](OC(C)=O)[C@@H](OC(C)=O)[C@@H]1OC(C)=O	·	0.4
N=c1n(CCOc2ccccc2)c2ccccc2n1Cc1ccccc1	6	-0.2

Quoted at random: 5 compounds from above, in no set order.
SMILES	Sa helicase inh	MgrA DNA FP
Nc1nncn1C(=O)c1ccc2c(c1)OCO2	6	·
Cc1onc(-c2ccccc2Cl)c1C(=O)N(CC(C)C)CC(C)C	-2	0.0
O=c1cc(CO)oc(C(=Nc2ccc(Cl)cc2)c2ccncc2)c1O	-14	·
O=C1Nc2cc(C(=O)N3CCN(c4ccc(F)cc4)CC3)ccc2NC1CS(=O)(=O)Cc1ccc(F)cc1 (stereo unspecified)	0	·
O=C(CC1CCCCC1)Nc1ccncc1	7	-3.5

Next section.
SMILES	Sa helicase inh	MgrA DNA FP
CCC1(C)N=C(c2ccc3c(c2)OCO3)CC(c2ccccc2O)N1 (stereo unspecified)	8	·
O=C(CSc1ncn[nH]1)C1CC1	0	-1.0
COc1cccc2sc(=NC(=O)Cc3cccc4ccccc34)n(C)c12	-10	0.2
O=C(O)CCC(=O)N(c1ccccc1)c1ccccc1	-1	3.1
Cc1ccc(C(=O)N(c2ccc(SC(F)F)cc2)c2nc3ccccc3s2)o1	-10	·
COc1cc(C2/C(=C(\O)c3ccc(F)cc3)C(=O)C(=O)N2Cc2cccnc2)ccc1O (stereo unspecified)	6	-0.9
CC(C)(C)[C@H]1COC(CC2=N[C@@H](C(C)(C)C)CO2)=N1	·	-1.8
COC(=O)N/N=C/c1c(C)nn(-c2cccc(Cl)c2)c1Cl	6	·
COC(=O)c1ccc(NS(=O)(=O)/C=C/c2ccccc2)cc1	6	·
CCOC(=O)N1CCN(C(=O)CN2C(=O)/C(=C\c3ccc(C)cc3)Sc3ccccc32)CC1	20	5.3

Profiles from above.
Shown for `O=C(O)CCC(=O)N(c1ccccc1)c1ccccc1` : Sa helicase inh = -1; MgrA DNA FP = 3.1
Shown for `CCOC(=O)N1CCN(C(=O)CN2C(=O)/C(=C\c3ccc(C)cc3)Sc3ccccc32)CC1` : Sa helicase inh = 20; MgrA DNA FP = 5.3

The listing continues:
SMILES	Sa helicase inh	MgrA DNA FP
O=C(COc1ccccc1)OCN1C(=O)c2ccccc2C1=O	6	0.2
COC(=O)CC1C(=O)NCCN1C(=O)c1sc2ccccc2c1Cl (stereo unspecified)	-17	·
O=C(c1ccc(CNS(=O)(=O)c2ccccc2)cc1)N1CCN(c2ccccn2)CC1	6	-1.4
CC1CCN(S(=O)(=O)c2ccc(N=C3C(=O)Nc4ccccc43)cc2)CC1	3	1.9
CCc1nc2nc(C)cc(=O)n2[nH]1	9	-1.4
Oc1ccc(CN2CCc3ccccc3C2)c2cccnc12	-1	·
CCN(Cc1ccccc1)CN1C(=O)C2(OCCCO2)c2ccccc21	11	·
Cn1nc(C(=O)NC2CCCCC2)c2ccccc2c1=O	0	-2.2
O=C(Nc1ccc2[nH]c3c(c2c1)CCCC3)c1ccco1	-13	·
NC(CSC1CCCCO1)C(=O)O (stereo unspecified)	17	-2.7
Cc1ccc(C(=O)C(C)OC(=O)C2=COCCO2)cc1C (stereo unspecified)	-10	·
O=C(CNC(=S)N(Cc1ccccc1)Cc1cccs1)NC1CCCCC1	13	3.0
O=C(CCCSc1nc2ccccc2s1)NCc1ccco1	3	·
OC(c1ccccc1)c1nnc(SCc2ccc(Br)cc2)n1-c1ccccc1 (stereo unspecified)	19	4.3
CS(=O)(=O)c1ccccc1C(=O)Nc1nnc(-c2ccc(Cl)cc2)o1	8	·
Cc1ccnc(SCc2cc(=O)c(OC(=O)c3ccc4c(c3)OCO4)co2)n1	9	·
Cc1ccc2oc(=O)c(C(=O)CC3CCCC3)c(O)c2c1	15	·
CC(Sc1nnc(-c2ccccc2Br)o1)C(=O)NC1CC1 (stereo unspecified)	-4	·
COc1ccc(OCCNC(=O)c2ccc3nccnc3c2)cc1	·	0.2
COc1cc(/C=N/N)cc(OC)c1OC	·	1.2

Sorted by formula weight (ascending): part of the list above
SMILES	Sa helicase inh	MgrA DNA FP
Cc1ccc2oc(=O)c(C(=O)CC3CCCC3)c(O)c2c1	15	·
Cc1ccc(C(=O)C(C)OC(=O)C2=COCCO2)cc1C (stereo unspecified)	-10	·
O=C(CCCSc1nc2ccccc2s1)NCc1ccco1	3	·
CC(Sc1nnc(-c2ccccc2Br)o1)C(=O)NC1CC1 (stereo unspecified)	-4	·
Cc1ccnc(SCc2cc(=O)c(OC(=O)c3ccc4c(c3)OCO4)co2)n1	9	·
O=C(CNC(=S)N(Cc1ccccc1)Cc1cccs1)NC1CCCCC1	13	3.0

Following part.
SMILES	Sa helicase inh	MgrA DNA FP
Cc1ccc2nc(COC(=O)CN3C(=O)C4CC=CCC4C3=O)cc(=O)n2c1 (stereo unspecified)	1	·
Cn1c(-c2ccco2)n[nH]c1=S	-5	·
O=C(O)c1ccccc1-c1ccccc1C(=O)NCCCO	5	-1.8
CC(C)(C)c1cc(C(=O)Nc2nccs2)ccn1	-8	-0.9
NCC1OC(OC2C(N)CC(N)C(OC3OC(CO)C(O)C(N)C3O)C2O)C(O)C(O)C1O (stereo unspecified)	·	0.9
Cc1c(C)c(C)c(CSc2nnc(/C(C#N)=C/c3cccs3)n2C)c(C)c1C	·	-0.1
O=C(NC(=S)Nc1ccc(Br)cc1)C1CC1	5	·
Nc1nn2cc(-c3ccccc3)nc2c2ccccc12	-7	-1.5
c1ccc(CN2CCC(NC3CCCC3)CC2)cc1	-2	0.9
O=C(CSc1nc2ccccc2[nH]1)N1CCCC1	8	-2.5
CC1CCCCN1CCCNC(=O)c1c(O)nc2ccccn2c1=O (stereo unspecified)	-9	·
Cc1cccc(N2CCN(CCNC(=O)c3csc4c3CCCC4)CC2)c1C	11	1.0
O=C(NC1CCCC1)c1ccccc1	4	1.4
CC(Oc1ccc(-c2ccccc2)c(F)c1)c1ccnc(N)n1 (stereo unspecified)	·	1.1
CCOc1ccc(N2C(=O)CC(/C=C3/N(C)c4ccccc4C3(C)C)C2=O)cc1 (stereo unspecified)	-15	2.0
CCOC(=O)C1CCCN(C(=O)c2ccc(/C=C3\Oc4ccccc4NC3=O)cc2)C1 (stereo unspecified)	1	-0.6
NNC(=O)c1ccc([N+](=O)[O-])o1	·	4.4
O=C(NC(=O)c1ccc(Cl)cc1)Oc1ccccc1	·	0.3
Cc1ccc(S(=O)(=O)N2CCc3ccccc3C2)cc1	19	3.0
O=C(O)CSc1ccc(F)cc1	·	2.3
O=C(COc1ccc(C2SCCS2)cc1)Nc1ccc(Cl)cc1	·	-3.3
O=C(CCn1c(=O)oc2ccccc21)OCc1cc(=O)n2cc(Br)ccc2n1	-27	·
CCOC(=O)NCCN1C(=O)C2C3C=CC(C3)C2C1=O (stereo unspecified)	15	·
O=C(CSc1ncnc2c1nnn2Cc1ccc(F)cc1)N1CCc2ccccc21	15	·
CN1CCCC(OC(=O)C(C)(c2ccccc2)c2ccccc2)C1 (stereo unspecified)	-5	-1.9
COC(=O)C1C(c2ccccc2)NC(c2ccccc2)C(C(=O)OC)S1(=O)=O (stereo unspecified)	·	0.8
O=C(CSc1nc2ccccc2s1)N=C1NC(=O)CS1	11	-0.7
COC(=O)c1ccc2nc(NC(=O)CCOc3ccccc3)sc2c1	-14	·
CCCN(CCC)C(=O)c1cc(OC)cc(OC)c1	14	1.6
COC(=O)CSc1nnc(-c2ccccc2)n1CC1CCCO1 (stereo unspecified)	9	-1.6

Of the compounds above, five have bromine.
SMILES	Sa helicase inh	MgrA DNA FP
Cc1ccc(N=Cc2ccc[nH]2)c(Br)c1	-19	1.4
OC(c1ccccc1)c1nnc(SCc2ccc(Br)cc2)n1-c1ccccc1 (stereo unspecified)	19	4.3
CC(Sc1nnc(-c2ccccc2Br)o1)C(=O)NC1CC1 (stereo unspecified)	-4	·
O=C(NC(=S)Nc1ccc(Br)cc1)C1CC1	5	·
O=C(CCn1c(=O)oc2ccccc21)OCc1cc(=O)n2cc(Br)ccc2n1	-27	·

Going on with the list:
SMILES	Sa helicase inh	MgrA DNA FP
Cc1cccc(NC(=O)Cn2c(=O)n(Cc3ccco3)c(=O)c3cccnc32)c1	-29	·
Cc1nc(C)c(-c2cc(C)c3c(C)nc(C)nc3n2)c(N)n1	7	·
Nc1nc(C(=O)Nc2ccccc2)c(-c2ccccc2)s1	-9	1.2
Brc1ccc(-c2csc(-c3cccnc3)n2)cc1	·	-1.7
CC(C)N=C(Nc1ccnn1C(C)C)c1ccccc1	-3	·
CCN(CC)C(=O)/C(C#N)=C/c1ccc(-c2ccc(Cl)cc2)o1	7	·
CCOC(=O)Cc1csc(SCC(=O)Nc2cc(C(C)(C)C)nn2-c2ccccc2)n1	4	·
CC(CBr)(NS(=O)(=O)c1ccccc1)c1ccccc1 (stereo unspecified)	-14	-1.0
Cc1cc2cc(CNS(=O)(=O)N(C)C)ccc2[nH]1	5	·
N#C/C(=C\Nc1ccc(F)cc1)c1nc(-c2cc3cc(Br)ccc3oc2=O)cs1	·	-3.4
O=C(NCc1ccco1)c1ccc2c(=O)n(CCCN3CCCC3=O)c(=S)[nH]c2c1	10	·
NS(=O)(=O)c1ccc(CCNC(=O)c2c(Cl)nc3sccn23)cc1	0	·
CN(C(=O)COC(=O)c1ccc(CO)cc1)c1ccccc1	10	·
